# Source: PubChem (several laboratories)
# FPR binder = binds the human formylpeptide receptor FPR. FPR-expressing cells, fluorescent ligand binding, flow cytometry. inhibition, %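 (tested at 6.7 µM)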. 24,000 tested, 0.74% active. AID 440;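 also: 0% = buffer wells and 100% = receptor blocker peptide wells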
# Target sequence (P21462 whole entry, looked up): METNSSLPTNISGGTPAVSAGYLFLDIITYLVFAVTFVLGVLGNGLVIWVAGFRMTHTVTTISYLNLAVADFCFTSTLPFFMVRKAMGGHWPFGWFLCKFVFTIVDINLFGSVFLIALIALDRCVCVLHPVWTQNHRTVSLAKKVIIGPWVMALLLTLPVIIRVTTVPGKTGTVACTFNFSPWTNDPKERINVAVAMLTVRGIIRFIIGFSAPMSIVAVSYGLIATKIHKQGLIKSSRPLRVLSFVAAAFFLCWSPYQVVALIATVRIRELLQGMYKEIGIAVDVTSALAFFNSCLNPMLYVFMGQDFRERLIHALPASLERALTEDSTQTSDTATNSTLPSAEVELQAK
# VCAM-1 up imaging = enhancers of VCAM-1 display on endothelial cells, imaging, high-content imaging, pooled HUVEC, TNFa stimulus (AID 457); calls only; 10,000 tested, 0.2% active; Pooled HUVEC, TNFa-induced VCAM-1 immunofluorescence imaging; hits of this screen are not shown here;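 active = a top-ranked rise in VCAM-1 staining upheld on image or statistical review; inactive = the rest, including candidates rejected on review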;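 also: compounds tested at 5 µM in the well; cells exposed to compound for 24 hours before fixing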
# VCAM-1 imaging = inhibitors of TNFa-induced VCAM-1 surface display, imaging, high-content imaging, pooled HUVEC, TNFa stimulus (AID 456) | HUVEC TNFa-induced VCAM-1 surface expression, immunofluorescence imaging; numbers were filed only for top-ranked candidate wells | one-dose inhibition, % at 5 µM; IC50 in µM for titrated hits | 10,000 tested, 0.2% active;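 active = top tenth filtered wells with inhibition above zero that passed visual or statistical confirmation; inactive = the rest, including hits rejected on review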;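 also: 0% = stimulated vehicle wells and 100% = unstimulated cells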
# FPRL1 ligand = ligands of human FPRL1, also counter-screen for FPR ligands. 24,000 tested, 0.3% active. inhibition, %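 (tested at 6.7 µM)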. FPRL1-expressing cells, fluorescent ligand binding inhibition, flow cytometry. P25090. AID 441;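 also: 0% = buffer alone and 100% = receptor blocker peptide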
# Target sequence (P25090 whole entry, looked up): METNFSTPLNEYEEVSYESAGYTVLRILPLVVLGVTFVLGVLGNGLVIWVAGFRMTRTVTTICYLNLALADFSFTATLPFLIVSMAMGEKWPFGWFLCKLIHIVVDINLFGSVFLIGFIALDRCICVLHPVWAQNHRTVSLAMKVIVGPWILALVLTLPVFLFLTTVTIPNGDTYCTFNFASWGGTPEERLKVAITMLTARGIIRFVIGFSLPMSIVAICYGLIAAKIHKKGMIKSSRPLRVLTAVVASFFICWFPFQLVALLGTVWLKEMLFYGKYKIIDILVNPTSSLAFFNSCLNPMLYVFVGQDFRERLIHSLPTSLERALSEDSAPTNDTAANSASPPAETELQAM
# VCAM-1 inhibition = inhibitors of TNFa-induced VCAM-1 surface display, cell-based, plate reader, pooled HUVEC, TNFa stimulus (AID 454). HUVEC TNFa-induced VCAM-1 surface immunofluorescence, plate reader; numbers were filed only for top-ranked candidate wells. inhibition, % at 5 µM. 10,000 tested, 0.2% active;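 active = compound among top-ranked inhibitors of TNF-induced VCAM-1 adhesion protein staining, with the hit upheld by image or statistical review; inactive = the rest, including hits rejected on review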;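 also: 0% = TNFa with vehicle and 100% = cells without TNFa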
# Active calls of the source: *; i = inactive; · = not tested or not shown.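 The calls were made as follows, unless noted: active = mean above 30%; inconclusive = self-fluorescent; inactive = the rest.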 The list is partial, so the mix of outcomes need not match the whole.
SMILES,FPR binder,VCAM-1 up imaging,VCAM-1 imaging,FPRL1 ligand,VCAM-1 inhibition
CC(C)CCOc1cccc(C2c3c(oc4ccccc4c3=O)C(=O)N2CCCN2CCOCC2)c1 (stereo unspecified),1,·,·,1,·
CCOC(=O)c1cccc(NC(=O)CCS(=O)(=O)c2cccs2)c1,-6,·,·,-5,·
COc1ccc(CCNC(=O)CCn2c(=O)[nH]c3cc(OC)c(OC)cc3c2=O)cc1OC,2,·,·,5,·
CCOC(=O)N1CCC(NC(=O)C2CCCN(S(=O)(=O)c3cccnc3)C2)CC1 (stereo unspecified),-1,·,·,4,·
O=C(CN1C(=O)COCC1=O)N1CCOCC1,-2,i,i,-8,i
CCOC(=O)c1ccc(S(=O)(=O)Nc2cc(C(C)(C)C)no2)cc1,-2,i,i,6,i
COCCNC(=O)CN(C)S(=O)(=O)c1ccc(Br)cc1,1,i,i,3,i
CCn1c(=O)cc(OCC(=O)N2CCCCCC2)c2ccccc21,-1,·,·,-1,·
Cc1nc(N2CCC(C)CC2)c2c(C)c(C(=O)O)sc2n1,1,i,i,-2,i
Cc1ccc(CCNC(=O)C2CCCN(S(=O)(=O)c3c(C)noc3C)C2)cc1 (stereo unspecified),-1,·,·,0,·
CCCc1cc(=O)n2[nH]c(C)cc2n1,6,·,·,2,·
COc1cccc2cc(C(=O)OC3CCN(C)CC3)c(=O)oc12,-4,i,i,-1,i
COC(=O)CNc1nc(C2CC2)nc2c1nnn2Cc1ccccc1Cl,-2,i,i,-5,i
O=C(CNC(=O)c1ccco1)OCN1C(=O)c2ccccc2C1=O,3,·,·,-2,·
O=C(CSc1nnc(CNC(=O)c2ccco2)o1)NC1CCCC1,5,·,·,6,·
Cc1ccc2[nH]c(=O)c(C(c3nnnn3CCc3ccccc3)N3CCOCC3)cc2c1 (stereo unspecified),4,i,i,-2,i
Cc1ccc(S(=O)(=O)N2CCN(Cc3cc(C(C)C)ccc3O)CC2)cc1,-7,·,·,-5,·
CCOC(=O)Nc1ccc(OC)cc1S(=O)(=O)N1CCCCC1,63*,i,i,51*,i
CCn1c(SCC(=O)Nc2ccc(C(=O)OC)cc2)nnc1-c1cccs1,1,i,i,7,i
Cc1cccc(NC(=O)C2CCCN2S(=O)(=O)c2cccc3cccnc23)c1 (stereo unspecified),-2,·,·,-2,·
CCOC(=O)c1c(NC(=O)OC)sc(C(=O)N(C)C)c1C,-3,i,i,3,i
O=C1C(C=NCCCn2ccnc2)=C(O)c2ccccc21,6,i,i,-3,i
Cc1ccccc1CS(=O)(=O)CCC(=O)NCCCN1CCN(c2ccccc2F)CC1,-1,·,·,-5,·
O=C(CCCn1c(=O)c2ccccc2n(CC(=O)NCc2ccco2)c1=O)NCc1ccco1,-4,·,·,6,·
O=C(COC(=O)c1cnccn1)c1ccc(OC(=O)c2ccccc2)cc1,1,i,i,1,i
CCC(=O)c1ccc(OCC(O)CN2CCN(S(=O)(=O)N3CCCCC3)CC2)cc1 (stereo unspecified),-9,i,i,-6,i
COc1cccc(-n2c(Cc3cc(=O)[nH]c(=O)[nH]3)nnc2SCC(=O)Nc2ccccc2)c1,6,·,·,9,·
COc1ccccc1C1/C(=C(/O)c2ccc(OC(C)C)cc2)C(=O)C(=O)N1c1cc(C)on1 (stereo unspecified),-4,·,·,11,·
COc1ccc(N(CC(=O)Nc2ccc(OC)c(Cl)c2)S(=O)(=O)c2c(C)noc2C)cc1,3,·,·,-3,·
CCOC(=O)c1nc(-c2ccc3c(c2)OCO3)[nH]c1C,11,·,·,-7,·
Cc1ccc(NC(=O)CCn2nc(C)cc2C)c(C)c1,2,·,·,-11,·
CSc1nc(N)nc(SCC(=O)c2ccccc2)c1C#N,3,·,·,5,·
COCCCNC(=O)Cn1ncc2ccsc2c1=O,-1,·,·,9,·
Cc1csc(NC(=O)c2cccs2)n1,-3,i,i,-1,i
Cc1ccc2nc(C)cc(NCCO)c2c1,-7,·,·,10,·
Cc1ccc(Cl)cc1N1CCN(C(=O)C2CCCN(S(=O)(=O)c3cnc[nH]3)C2)CC1 (stereo unspecified),-3,i,i,-3,i
CC1(C)OC(=O)N(Cc2ccco2)C1(C)O (stereo unspecified),-1,·,·,-4,·
O=C(CCNC(=O)Cn1cnc2ccccc2c1=O)NCCC1=CCCCC1,-11,·,·,-10,·
CCOC(=O)c1sc(NC(=O)c2noc3c2CCCC3)c(C(=O)OCC)c1C,-4,i,i,3,i
COc1ccccc1CNC(=O)C1CCN(Cc2nc(-c3cccc(Cl)c3)oc2C)CC1,9,·,·,-5,·
COc1ccc(C2=NOC(C(=O)NC(C)C)C2)cc1 (stereo unspecified),8,·,·,1,·
CCOc1cc(-c2noc(N)c2C(=O)OC)cc(OCC)c1OCC,1,·,·,18,·
CCOC(=O)CN1CC23C=CC(O2)C(C(=O)NC2CCCC2)C3C1=O (stereo unspecified),3,i,i,1,i
O=C(CCNS(=O)(=O)c1cccc2nsnc12)NCc1cccs1,-8,i,i,-7,i
O=C1CCC(C(=O)N(c2ccccc2)C2(C(=O)NC3CCCCC3)CCCCC2)N1 (stereo unspecified),-2,·,·,6,·
CCOC(=O)C(NC(C)=O)(Nc1ccc(S(=O)(=O)Nc2nccs2)cc1)C(F)(F)F (stereo unspecified),10,·,·,5,·
CCOc1ccccc1NC(=O)CN(c1ccc(OC)cc1)S(=O)(=O)c1c(C)noc1C,12,·,·,-8,·
O=C(c1cc(S(=O)(=O)N2CCOCC2)ccc1F)N1CCN(Cc2ccccc2)CC1,7,·,·,7,·
O=C(CCCn1c(=O)[nH]c2ccccc2c1=O)N1CCN(c2ccccn2)CC1,-1,·,·,-6,·
O=C1Nc2cc(C(=O)N3CCN(Cc4ccccc4)CC3)ccc2SC1N1CCOCC1 (stereo unspecified),-2,·,·,-5,·

# (listing goes on)
SMILES,FPR binder,VCAM-1 up imaging,VCAM-1 imaging,FPRL1 ligand,VCAM-1 inhibition
Cc1nnc(SCc2ccccc2)n1N,1,i,i,-1,i
Cc1ccc(C)c(N2CCN(S(=O)(=O)c3ccc4c(c3)CCC(=O)N4)CC2)c1,-1,·,·,-5,·
C=CCn1c(-c2ccoc2)n[nH]c1=S,3,·,·,12,·
CCc1ccccc1NC(=O)CCc1nc(-c2ccc(C)cc2)no1,3,i,i,-1,i
COc1ccc(-c2cc(O)cc(O)c2)cc1,4,i,i,-9,i
Cc1ccc(CCN2CC(C(=O)NCc3ccco3)CC2=O)cc1 (stereo unspecified),2,·,·,3,·
Cc1oc(-c2cccs2)nc1CS(=O)CC(=O)NCCCOC(C)C (stereo unspecified),-1,·,·,-3,·
Cc1cccc(CSC2=NCCN2C(=O)c2ccco2)c1,2,·,·,-10,·
Cc1cc(NC(=O)c2ccc(S(=O)(=O)N3CCCC3)cc2)nc2c1c(=O)oc1ccccc12,-4,·,·,8,·
O=C(CCc1ccccc1)Nc1ncn[nH]1,2,·,·,0,·
COC(=O)c1ccc2c(=O)n(Cc3ccco3)c(SCC(=O)Nc3ccc(C)c(Cl)c3)nc2c1,1,i,i,2,i
Cc1nc2ccccc2c(=O)n1NC(=O)c1c(O)c2c(n(CC(C)C)c1=O)CCCC2,17,i,i,-5,i
Cc1cc(NC(=O)COc2cccc(C)c2C)no1,-4,i,i,-5,i
COc1ccccc1NC(=O)C1=C(C)Nc2ncnn2C1c1ccccc1C (stereo unspecified),-3,·,·,0,·
Nc1c(Sc2ccccc2)c(=O)[nH]c(=O)n1Cc1ccccc1,-4,i,i,13,i
CCOC(=O)c1ccccc1NC(=O)Cn1cnc2c(cnn2-c2ccccc2)c1=O,6,·,·,3,·
Nc1nonc1C(=O)NCCNCc1cc(Br)ccc1OCc1ccccc1F,-4,i,i,-4,i
COc1ccc(-c2nnc(NC(=O)c3ccc(S(=O)(=O)N4CCc5ccccc5C4)cc3)o2)cc1,5,·,·,-3,·
Cc1[nH]n2c(=O)c3c(nc2c1-c1ccccc1)CCC3,40*,·,·,-3,·
Cc1nc2ccc(S(=O)(=O)NC(C(=O)N3CCn4c3nc3ccccc34)C(C)C)cc2s1 (stereo unspecified),-4,·,·,4,·

# Whole records, looked up by structure. Order of values: FPR binder	VCAM-1 up imaging	VCAM-1 imaging	FPRL1 ligand	VCAM-1 inhibition
# `Nc1nonc1C(=O)NCCNCc1cc(Br)ccc1OCc1ccccc1F` is listed with -4	i	i	-4	i
# `Cc1cc(NC(=O)COc2cccc(C)c2C)no1` is listed with -4	i	i	-5	i
# `Cc1nc2ccccc2c(=O)n1NC(=O)c1c(O)c2c(n(CC(C)C)c1=O)CCCC2` is listed with 17	i	i	-5	i
# `CCOC(=O)c1ccccc1NC(=O)Cn1cnc2c(cnn2-c2ccccc2)c1=O` is listed with 6	·	·	3	·

# Other results
SMILES,FPR binder,VCAM-1 up imaging,VCAM-1 imaging,FPRL1 ligand,VCAM-1 inhibition
Cc1ccc(S(=O)(=O)NCCN=C(CN2CCOCC2)NS(=O)(=O)c2ccc(C)cc2)cc1,1,·,·,-13,·
CC1C2CC(C(S(=O)(=O)N3CCOCC3)C2=O)C1(C)C (stereo unspecified),-4,·,·,2,·
CN(C)c1ccc(C=NCC2(O)CCOC(C)(C)C2)cc1 (stereo unspecified),2,i,i,-2,i
CC1(C)CC2(CCO1)OC(=O)CC2C(=O)NCc1ccccc1 (stereo unspecified),-8,·,·,0,·
C/C=C/COC(=O)c1[nH]c2c(c1C)C(=O)CC(c1ccc(N(C)C)cc1)C2 (stereo unspecified),-7,i,i,-5,i
N#Cc1ccc(Nc2ccccc2)c(N)c1,-10,·,·,4,·
COc1ccc(OC)c(NC(=O)CN(c2ccc(C)cc2)S(=O)(=O)c2c(C)noc2C)c1,-4,·,·,6,·
CN(CC(=O)NC1CCCCC1)S(=O)(=O)c1cccc2nsnc12,-8,·,·,-6,·
O=C(CN1CCN(C(=O)c2cccc(F)c2)CC1)Nc1ccccc1F,3,·,·,-1,·
O=C(COC(=O)C1CC(=O)N(c2ccccc2)C1)c1ccccc1 (stereo unspecified),-1,i,i,3,i
O=C(NCCN1CCCC1)c1ccc(CS(=O)(=O)c2c(Cl)cccc2Cl)o1,-2,·,·,-4,·
O=C(CSc1nnc(CNC(=O)c2ccccc2F)o1)NCCc1ccccc1,0,·,·,1,·
CC(=O)c1cc(F)c(N2CCN(C(=O)Cc3ccccc3)CC2)cc1C,-8,i,i,-6,i
O=C(Cn1ncc2c(=O)oc3ccccc3c21)N1CCCN(Cc2ccccc2F)C1,4,·,·,-5,·
CCN(CC)Cc1c(C(=O)OC)nnn1-c1nonc1N,2,i,i,0,i
CN(C)S(=O)(=O)c1ccc(C(=O)N2CCC(c3nc4ccccc4o3)CC2)cc1,-4,i,i,-7,i
COc1ccccc1OC(C)C(=O)O (stereo unspecified),0,·,·,-4,·
Cc1sc(NC(=O)C2CCCCC2C(=O)O)c(C(N)=O)c1-c1ccccc1 (stereo unspecified),3,·,·,-8,·
CCn1nc(C(=O)OCC(=O)N2CCc3ccccc32)c2ccccc2c1=O,-2,i,i,7,i
Cc1cc(Cl)ccc1OCC(=O)Nn1c(C)ccc1C,-10,i,i,-6,i
Cc1cccn2c(=O)c3cc(C#N)c(=NC(=O)c4ccncc4)n(Cc4ccco4)c3nc12,10,i,i,9,i
CCC(C)NC(=O)c1c(C)cc(=O)oc1C (stereo unspecified),1,·,·,2,·
COc1ccccc1CNC(=O)C1CCN(S(=O)(=O)c2c(C)noc2C)CC1,-2,·,·,-13,·
CC(=O)N1CCN(c2ccc(S(=O)(=O)N3CCCCC3)cn2)CC1,-6,i,i,-7,i
CCC(=O)N1CCc2cc(S(=O)(=O)N3CCc4ccccc43)ccc21,7,·,·,5,·
CCOc1ccc(CNc2ccc3c(c2)ncn3C)cc1,12,i,i,4,i
CCOC(=O)/C=C(\C)Sc1cc(=O)oc2ccccc12,-2,i,95%,-4,93
Cc1ccc(Cl)cc1N1CCN(C(=O)C2CCN(S(=O)(=O)c3c(C)nn(C)c3C)CC2)CC1,-1,·,·,-6,·
O=C(O)CC(c1ccccc1)n1cccc1 (stereo unspecified),1,·,·,-6,·
CN(C(=O)c1coc(=O)c2ccccc12)c1ccc(F)cc1,-5,·,·,-1,·
COC(=O)c1cn(NC(=O)c2ccc3c(c2)OCO3)c(=O)c2ccccc12,7,·,·,-8,·
Cc1cc(C)c(Cn2c(=O)n(CCCC(=O)NCc3ccco3)c(=O)c3ccccc32)c(C)c1,2,i,i,0,i

# For convenience, part of the list above.
SMILES,FPR binder,VCAM-1 up imaging,VCAM-1 imaging,FPRL1 ligand,VCAM-1 inhibition
CC1(C)CC2(CCO1)OC(=O)CC2C(=O)NCc1ccccc1 (stereo unspecified),-8,·,·,0,·
C/C=C/COC(=O)c1[nH]c2c(c1C)C(=O)CC(c1ccc(N(C)C)cc1)C2 (stereo unspecified),-7,i,i,-5,i
N#Cc1ccc(Nc2ccccc2)c(N)c1,-10,·,·,4,·
COc1ccc(OC)c(NC(=O)CN(c2ccc(C)cc2)S(=O)(=O)c2c(C)noc2C)c1,-4,·,·,6,·
